LANA-H2B inh: blocks KSHV LANA binding to histone H2A/H2B. Q9QR71. cell-free LANA-H2A/H2B peptide, fluorescence polarization. inhibition, % (no concentration beside the values). 0.6% of 320,000 active. AID 2629; in the data active = inhibition mostly above about 10%, no sharp cut-off; inactive = mostly below about 6.7%;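 note: stock transfer was 7.5 nL into about 10 µL; 0% = median of vehicle wells and 100% = median of positive control wells; one replicate is shown; the record names a cut of 25% in any replicate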
B2AR ag: activates human beta-2 adrenergic receptor causing internalization; P07550; Am2.2-beta2AR cells, FAP receptor internalization, flow cytometry; reference of the scale not given here; 0.43% of 340,000 active; response, % (no concentration beside the values);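 active = response above a set limit, near 3 SD of response in nonfluorescent compounds, cut at about 42% in these data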;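 note: stock transfer was 100 nL into about 11 µL; a reference agonist was the positive control; negative values mostly stem from fluorescent compounds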
Bfl-1 A1 inh: inhibitors of the anti-apoptotic protein A1, read as caspase activation | MEF A1-2A-BIM cells, Caspase-Glo 3/7 luminescence, 3 h; percent of clofoctol response, vehicle zero | caspase activation, % (concentration not given with the values) | 0.066% of 330,000 active | AID 2462;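 active = over half of replicate activation scores above 10%, or exactly half above 10 with the replicate mean above 10; inconclusive = replicate mean below 10 yet half the replicates above 10; inactive = over half of replicates below 10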;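 note: wells of about 30 µL received 50 nL stock; many hits fall short of the cut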
E coli growth: blocks Escherichia coli growth | OD600, 23 h; hits give low values | OD600 absorbance (no concentration beside the values) | 0.21% of 330,000 active;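 active = OD600 absorbance below the run mean of sample wells minus 3.6 SD, in any replicate, cut at about 0.56 in these data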;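 note: stock transfer was 300 nL into about 60 µL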
Vif A3G: inhibitors of Vif binding to APOBEC3G peptide, primary screen, biochemical, TR-FRET, GST-Vif 1-94, biotin-A3G peptide, dose response retest (AID 1117319); inhibition, %; hits with a dose series show IC50 in µM; 0.57% of 260,000 active; TR-FRET GST-Vif / biotin-A3G peptide binding; higher % means a stronger effect; test concentration not given here; strong numbers were not always called active;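 active = above the screen mean plus three standard deviations and confirmed in dose response; inconclusive = results disagree or hit not tested in dose response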;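 note: Vif residues 1-94 fused to GST binding biotinylated APOBEC3G peptide 110-148; 0% = full assay without inhibitor and 100% = GST in place of GST-Vif; retest series ran down from 100 µM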
HNF4A DNA FP: change in binding of human HNF4 alpha to DNA; 0.3% of 360,000 active; P41235; AID 1224865; activity change, % at 10 µM; HNF4a-FITC DNA binding, fluorescence polarization, 1 h; in the data active = activity change above about 30%, passing the limit was not always enough;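 note: controls were the assay level and a saturating level of protein; the project sought stronger binding though the title names inhibitors; some compounds called inactive have numbers as strong as hits; positive values seem to mean higher polarization but the record does not say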
Target sequence (P41235 whole entry, looked up): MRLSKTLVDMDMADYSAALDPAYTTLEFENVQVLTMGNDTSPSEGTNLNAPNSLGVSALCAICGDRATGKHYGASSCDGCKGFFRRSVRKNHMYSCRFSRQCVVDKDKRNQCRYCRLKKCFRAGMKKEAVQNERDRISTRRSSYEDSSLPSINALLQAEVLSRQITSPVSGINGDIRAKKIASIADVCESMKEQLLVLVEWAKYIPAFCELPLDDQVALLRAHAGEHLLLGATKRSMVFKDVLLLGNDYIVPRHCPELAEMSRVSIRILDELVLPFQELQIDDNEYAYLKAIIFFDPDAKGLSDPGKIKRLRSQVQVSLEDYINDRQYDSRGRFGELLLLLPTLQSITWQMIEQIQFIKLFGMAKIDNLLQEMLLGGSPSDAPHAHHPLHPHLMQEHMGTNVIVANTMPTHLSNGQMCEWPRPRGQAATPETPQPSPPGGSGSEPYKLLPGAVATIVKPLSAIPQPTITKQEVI
UCH37 DUB inh: blocks the human deubiquitinase UCH37; Q9Y5K5; purified proteasome/UCH37, Ub-AMC cleavage fluorescence; inhibition, % (concentration not given with the values); 0.33% of 330,000 active; AID 588478;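 active = mean of two replicates above 20%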;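 note: 0% = compound-free wells with enzyme and 100% = wells lacking proteasome; stock transfer was 100 nL into about 20 µL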
Target sequence (Q9Y5K5 whole entry, looked up): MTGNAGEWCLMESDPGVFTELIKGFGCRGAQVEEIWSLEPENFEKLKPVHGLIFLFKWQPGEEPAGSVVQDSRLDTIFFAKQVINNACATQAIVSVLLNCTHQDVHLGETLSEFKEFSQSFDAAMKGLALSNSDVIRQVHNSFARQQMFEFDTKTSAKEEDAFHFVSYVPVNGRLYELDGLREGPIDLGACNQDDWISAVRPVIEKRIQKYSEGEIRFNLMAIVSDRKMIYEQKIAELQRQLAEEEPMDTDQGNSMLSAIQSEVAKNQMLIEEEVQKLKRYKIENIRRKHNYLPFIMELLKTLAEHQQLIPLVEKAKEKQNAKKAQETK
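Material: human UCH37 enzyme supplied as purified proteasome complex. Measure: % inhibition of Ub-AMC cleavage fluorescence. Medium: pH 7.4 Tris-HCl (50 mM) with ovalbumin, ATP-MgCl2, DTT. Times: 30 min preincubation with enzyme, 25 min cleavage at room temperature. Detection: AMC fluorescence intensity at 355/460 nm.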
The depositor's hits bear a star; i = inactive; ? = inconclusive; · = not tested or not shown; & = joins results of further samples. Hits appear at their usual frequency; 2.1% or so of the library scored in one or more.

SMILES,LANA-H2B inh,B2AR ag,Bfl-1 A1 inh,E coli growth,Vif A3G,HNF4A DNA FP,UCH37 DUB inh
CN1CCC(N(C)C(=O)c2ccc(Cl)c(S(=O)(=O)Nc3cc(Cl)ccc3Cl)c2)CC1,-2.7,-5,-0.7,0.69,3%,-0.1,2.0
CCOCC(O)CS(=O)Cc1ccccc1 (stereo unspecified),-2.2,0,-0.4,0.68,71%,1.7,3.1
COc1ccc(S(=O)(=O)N2CCCCCC2)cc1C(=O)N1CCCCC1,2.3,7,0.0,0.71,6%,0.2,3.0
Cc1c(C(=O)O)[nH]c2ccc([N+](=O)[O-])cc12,·,2,·,0.7,15%,-8.8,11
CCOC(=O)c1oc2ccccc2c1COC(=O)CNC(=O)c1cccc(C)c1,-0.6,8,-0.1,0.71,-6%,-0.7,3.0
COc1ccc(C(C)n2c(C)c3c(C)nnc(C)c3c2C)cc1 (stereo unspecified),-4.0,0,-0.1,0.67,?,5.3,-27
CCC(=O)Nc1nc(-c2ccccc2)ns1,4.4,0,0.4,0.69,5%,3.4,4.4
COc1ccc(C(c2sc3nc(C)nn3c2O)N2CCC(O)CC2)cc1OC (stereo unspecified),2.9,-1,-1.0,0.75,-4%,-0.9,5.3
Cc1nn(-c2ccccc2)c(N)c1N=Nc1ccc(Cl)cc1,1.2,2,0.9,0.67,·,-3.5,2.4
OCC(O)CN(c1ccccc1)c1ccccc1 (stereo unspecified),3.3,-3,-0.3,0.74,·,0.8,1.1
CC(=O)c1ccc(NC(=S)N2CCC(Cc3ccccc3)CC2)cc1,-5.3,11,1.0,0.7,15%,8.1,2.7
COCCN1CCc2[nH]c(=S)[nH]c(=O)c2C1,-0.3,2,-0.5,0.67,·,2.1,6.9
COc1ccc(-n2c(=O)c3c4c(sc3n3c(=S)[nH]nc23)CCC4)cc1,-1.1,3,1.3,0.69,6%,1.3,2.5
COc1cc(C(=O)NCc2nnc(SCC(=O)Nc3cc(C)on3)o2)cc(OC)c1OC,2.3,-3,0.3,0.68,-2%,0.7,1.9
NS(=O)(=O)c1ccc(NC(=O)COC(=O)COc2ccc3ccccc3c2)cc1,-2.9,-2,-0.8,0.7,·,-3.0,2.0
CC(NC(=O)c1cccc(S(=O)(=O)N2CCN(C)CC2)c1)c1ccc(Cl)cc1Cl (stereo unspecified),-0.5,7,-0.1,0.66,3%,3.8,-0.9
O=C(Nc1ccc(N2CCCC2)cc1)c1cccc(Cl)c1Cl,-12,6,0.5,0.68,-5%,5.4,-5.9
COc1ccccc1NC(=O)CSc1nnc(Cc2cccn2C)n1CCc1ccccc1,-4.8,14,0.7,0.73,-6%,4.9,0.5
COc1ccc(-c2csc3nc[nH]c(=O)c23)cc1,-1.8,-7,2.5,0.69,0%,-0.2,2.8
Cn1cnc([N+](=O)[O-])c1S(=O)(=O)Oc1ccccc1,·,19,·,0.64,8%,3.5,8.7

Exported with values under each structure: entries from further up.
Below each SMILES: LANA-H2B inh | B2AR ag | Bfl-1 A1 inh | E coli growth | Vif A3G | HNF4A DNA FP | UCH37 DUB inh
> COc1ccc(S(=O)(=O)N2CCCCCC2)cc1C(=O)N1CCCCC1
→ 2.3 | 7 | 0.0 | 0.71 | 6% | 0.2 | 3.0
> Cc1c(C(=O)O)[nH]c2ccc([N+](=O)[O-])cc12
→ · | 2 | · | 0.7 | 15% | -8.8 | 11

Later entries.
SMILES,LANA-H2B inh,B2AR ag,Bfl-1 A1 inh,E coli growth,Vif A3G,HNF4A DNA FP,UCH37 DUB inh
NC(=O)CN(N=Nc1cccc([N+](=O)[O-])c1)c1cccc([N+](=O)[O-])c1,-4.5,-1,0.4,0.69,10%,2.8,5.1
COc1ccccc1NC(=O)c1ccc(NC(=O)c2ccco2)cc1,-12,-13,0.4,0.7,·,-0.3,3.8
COc1ccc(-c2noc(-c3ccc4c(c3)OCO4)n2)cc1,0.3,-1,-2.7,0.69,7%,11,-3.2
CC(NC(=O)COC(=O)c1cc([N+](=O)[O-])ccc1N1CCOCC1)c1ccccc1 (stereo unspecified),0.6,-10,-0.5,0.69,-4%,1.4,8.0
OC1(C(F)(F)F)CC(O)(C(F)(F)F)n2nc(-c3ccccc3)cc2N1 (stereo unspecified),2.9,4,-0.9,0.7,2%,-2.5,2.5
CN(C)CCN(C(=O)c1ccc(S(=O)(=O)N(C)C)cc1)c1nc2cc3c(cc2s1)OCCO3,-0.7,4,0.0,0.71,0%,2.3,3.3
CCOC(=O)Nc1ccc(=O)n(Cc2c(Cl)cccc2Cl)c1,1.0,8,1.5,0.72,11%,-0.6,-15
COc1ccc(CCC2(C)NC(=O)N(C(C)C(=O)N3c4ccccc4CC3C)C2=O)cc1 (stereo unspecified),·,-4,-0.2,0.71,-2%,0.5,1.7
COc1ccc(-c2nn(-c3ccccc3)cc2C(=O)N2CCN(S(=O)(=O)c3cccc(F)c3)CC2)cc1,-2.2,8,-0.7,0.71,7%,-1.7,-2.1
COc1ccc(-n2c(CN3CCC(C)CC3)nc3ccc([N+](=O)[O-])cc3c2=O)c(OC)c1,3.7,-14,0.5,0.68,2%,11,5.3
Cc1ccc(CC(=O)OCCNC(=O)c2cccnc2)cc1,-4.4,-1,-0.1,0.67,6%,1.7,-0.1
Cc1[nH]c(=S)c(C#N)c(C)c1C(=O)Nc1ccccc1,-1.4,7,-0.6,0.71,3%,-2.3,1.1
CC(=O)Nc1nnc(SCC(=O)N2C(C)CCCC2C)s1 (stereo unspecified),-1.4,9,0.7,0.68,·,-4.5,1.8
CC(=O)N1CCN(C(=O)c2cc(-c3ccc(Cl)s3)nc3ccccc23)CC1,0.0,6,1.0,0.62,-35%,0.1,i
O=C(Nc1ccc2c(c1)OCCO2)C1CCN(C(=O)c2ccc(Cl)cc2)CC1,2.6,3,1.4,0.71,0%,-2.3,-1.5
CCC(C(=O)OCn1nnc2ccccc2c1=O)c1ccccc1 (stereo unspecified),4.6,0,0.4,0.68,16%,0.7,2.5
CNC(=S)Nc1ccc(C(N)=O)cc1,2.5,-4,0.3,0.67,-8%,-2.3,-0.1
COC(=O)c1cc(NS(=O)(=O)c2ccc(C(C)C)cc2)ccc1N1CCOCC1,-6.8,-1,0.1,0.69,?,5.2,-12
O=C(c1ccccc1Oc1ccc(C(F)(F)F)cc1[N+](=O)[O-])N1CCOCC1,-1.2,1,-0.3,0.68,?,-0.3,3.8
Brc1ccc(-c2csc(/N=C/N3CCCC3)n2)cc1,6.5,33,2.0,·,-8%,0.3,·

(next part)
SMILES,LANA-H2B inh,B2AR ag,Bfl-1 A1 inh,E coli growth,Vif A3G,HNF4A DNA FP,UCH37 DUB inh
O=C(O)C1CCCN1C1=NS(=O)(=O)c2ccccc21 (stereo unspecified),7.1,-1,-0.1,0.7,·,-0.7,2.1
CC(C)(C)NC(=O)Cn1c(SCC(=O)NC2CC2)nc2ccccc21,0.1,-6,2.2,0.69,·,7.1,-1.4
Cn1nc(C(=O)OCC(=O)Nc2ccccc2[N+](=O)[O-])c2ccccc2c1=O,1.2,-4,-1.2,0.65,11%,0.7,3.0
COC(=O)Cc1[nH]n(-c2ccccc2)c(=O)c1C=Nc1ccc(C)cc1,-3.6,0,0.1,0.69,19%,5.8,2.8
COc1c(-c2ccc(O)cc2)oc2cc(O)cc(O)c2c1=O,5.4,19,0.6,0.64,·,-5.3,2.6
O=C(CN1C(=O)NC2(CCc3ccccc32)C1=O)NCc1ccc(Cl)cc1 (stereo unspecified),-3.2,-2,2.1,0.64,·,-0.3,0.0
CCCCNC(=O)C1c2cc(OC)c(OC)cc2C(=O)N(C)C1c1cccs1 (stereo unspecified),-1.2,1,0.5,0.72,3%,4.5,2.1
Cc1cc(S(=O)(=O)NCC2CCCO2)c(C)cc1Br (stereo unspecified),0.3,-5,0.0,0.69,·,-3.5,2.2
CCN(CCCNC(=O)Cn1ncc2c([nH]c3ccc(C)cc32)c1=O)Cc1ccccc1,0.9,5,-0.8,0.64,·,2.4,-4.3
N/C(=N\OC(=O)Cc1ccccc1[N+](=O)[O-])c1ccc(Br)cc1,-1.0,3,0.2,·,-7%,-6.1,·
CN(C)C(CNC(=O)CSc1nnc(-c2ccco2)o1)c1ccccc1 (stereo unspecified),-1.7,4,-0.6,0.68,-3%&2%,-2.4,4.5
COc1cccc(/C=N/Nc2cc(C)nc(-c3ccccc3O)n2)c1O,-1.9,30,0.3,·,·,-0.4,·
O=C(CCC(=O)OCC(F)(F)C(F)F)Nc1ccc(Cl)cc1,0.6,2,-0.1,0.69,3%,1.3,-2.0
COC(C(=O)Nc1ccc(S(=O)(=O)N2CCCCC2)cc1)c1ccccc1 (stereo unspecified),1.6,26,-0.2,0.65,13%,-0.3,0.3
COc1ccc(NC(=O)CSc2nc(O)cc(=O)[nH]2)c(OC)c1,0.0,7,-0.3,0.7,9%,2.4,8.0
COc1ccccc1C(=O)Nc1ccc(S(=O)(=O)NC2=NCCCCC2)cc1,·,4,2.2,0.71,·,2.0,-0.3
COC(=O)c1cc(CNC(=O)c2ccc(O)c(Cl)c2)ccc1OC,-0.6,28,0.9,0.71,16%,2.0,-0.8
CC(NC(=O)COc1ccccc1)C(=O)OCC(=O)c1cc2ccccc2o1 (stereo unspecified),2.9,-1,-0.5,0.7,-3%,-4.3,2.1
COc1ccc(C2CC(=O)C(C=NCC(C)C)=C(O)C2)cc1 (stereo unspecified),-2.3,3,-0.5,0.68,0%,-1.5,1.6
O=C(Nc1nc2ccccc2s1)C1CCCN1S(=O)(=O)c1ccc(Cl)cc1 (stereo unspecified),2.3,-12,0.3,0.7,5%,1.1,1.6

(next part)
SMILES,LANA-H2B inh,B2AR ag,Bfl-1 A1 inh,E coli growth,Vif A3G,HNF4A DNA FP,UCH37 DUB inh
CC(=O)Nc1ccc(SCC(=O)OCC(=O)NC(=O)NCc2ccco2)cc1,0.5,7,0.9,0.73,-2%,0.1,3.5
Cc1c(Cl)cccc1NC(=S)N(C)CCC#N,2.7,-2,3.4,0.68,8%,-1.0,-2.0
COc1ccc(/C=C2\SC(=S)N(N3C(=O)CCC3=O)C2=O)cc1O,3.8,-4,0.7,0.7,10%,4.7,6.0
Cc1ccc(C(=O)OCC(=O)NCc2cccs2)s1,·,-2,·,0.65,-4%,1.1,1.3
Cc1ccc(C(=O)NC(=C(Cl)Cl)S(=O)(=O)c2ccccc2)cc1,14*,8,0.3,0.68,·,2.1,-1.3
O=C(NNC(=O)c1ccc(Cl)s1)c1csc(N2CCOCC2)n1,1.0,1,-0.4,0.67,1%,-1.9,4.9
CN1/C(=C\C(=O)Nc2cccc(Cl)c2)C(C)(C)c2ccccc21,-3.2,7,0.8,0.65,13%,1.6,1.2
COc1ccc(N(CC(=O)NC2CCCC2)C(=O)Cn2nnc(-c3ccc(C)o3)n2)c(OC)c1,·,-11,·,0.69,·,3.3,3.2
CC(C)(C)N1CC(c2nc3ccccc3n2Cc2ccccc2)CC1=O (stereo unspecified),1.4,-7,-0.1,0.72,4%,-2.9,4.3
CCOc1cccc(NC(=O)Cc2cccs2)c1,0.5,-6,0.5,0.67,2%,-1.9,0.4
CCOC(=O)C(N)CSC1CC(=O)N(c2ccc(OCC)cc2)C1=O (stereo unspecified),2.8,3,-0.1,·,-1%,3.0,·
Cn1cccc1-c1nc2ccc(NC(=O)c3ccco3)cc2[nH]1,-0.4,8,1.0,0.7,0%,0.5,3.5
CCOc1ccccc1N(CC(=O)NCC1CCCO1)C(=O)CCC(=O)Nc1cc(C)on1 (stereo unspecified),-2.6,8,0.4,0.7,·,4.7,1.0

Screening results: PubChem BioAssay, several laboratories
